Compound activity: PubChem BioAssay, ICCB-Longwood Screening Facility, Harvard Medical School
MgrA-DNA mod – S. aureus MgrA activity modulators, primary screen, biochemical, S. aureus Newman, fluorescence polarization; AID 602314, 2012; MgrA-DNA binding; actives 0.13% (n = 84,000); inhibition, %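 (about 10 µg/mL by stock and volumes)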;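 active = above 50% in either of two replicates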;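 also: 0% = protein plus DNA without compound and 100% = DNA alone without protein; higher means less MgrA bound to DNA so lower polarization; one replicate is shown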
S aureus helic – inhibitors of S. aureus replicative helicase, primary screen, biochemical, fluorescence unwinding readout; replicative DNA helicase (DnaC/DnaB), Staphylococcus aureus; purified S. aureus helicase, fluorescence unwinding assay; about half of the hits fall short of the stated cut; inhibition, %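 (tested at about 80 µM)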; actives 0.05% (n = 120,000); AID 485395, 2010;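 active = both duplicates at 50% or more, or one of them with a favoured structure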;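 also: 0% = mean of negative control wells and 100% = mean of positive control wells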
* hit, by the source's call; · = not tested or not shown. Not all compounds are listed; count on the stated rates, not on these rows.

Each structure is followed by: MgrA-DNA mod, S aureus helic
O=C(COC(=O)c1ccccc1Sc1ncnc2sc3c(c12)CCC3)NCc1ccco1
    ·, 13
Fc1ccc(/C=N/c2nnc3nc[nH]n23)cc1
    -1.6, 3
COC(=O)N1CCC(=O)Nc2ccccc21
    -1.1, -1
CC1=CC(=N/C(C)=N/S(=O)(=O)c2ccc(C)cc2)C=C(C)C1=O
    ·, -10
CCOC1O[C@@H]2[C@H](O1)[C@@H](CO)O[C@H]2n1cnc2c(N)ncnc21 (stereo partly drawn)
    -1.5, ·
C=CCOc1cccc(C(=O)Nc2ncn[nH]2)c1
    1.4, 4
COc1cccc(NCc2ccc(O)c3ncccc23)c1
    9.0, 16
O=C(NCN1CCN(Cc2ccccc2)CC1)c1ccccc1
    -1.9, 2
Cc1nn(CC(=O)c2ccc(Br)cc2)c(N)[n+]1C
    ·, -14
COc1ccc(F)cc1S(=O)(=O)NC(Cc1ccccc1)C(N)=O (stereo not drawn)
    ·, -7
CC(=O)n1cc(-c2c(O)c3ccccc3oc2=O)c2ccccc21
    ·, 15
CCCc1n[nH]c(=S)s1
    ·, -8
Cc1nn(-c2ccccc2)c2sc(C(=O)NN3CC(O)=C(c4ccccc4)C3=N)cc12
    ·, -9
NNC(=S)Nc1cccc(C(F)(F)F)c1
    4.9, ·
Cc1ccc(-c2noc(CNC(=O)NC3CCCCC3)n2)cc1
    ·, -7
O=Nc1c(-c2ccccc2)[nH]oc1=O
    -0.4, ·
CC1=NN(c2cccc(Cl)c2)C(=O)/C1=C/c1ccc(OCc2ccccc2)cc1
    -2.3, ·
CC(C)C(=O)N=C1SC2CS(=O)(=O)CC2N1CCc1ccccc1 (stereo not drawn)
    0.4, 1
Cc1ccc(C2(CC(=O)Nc3ccccc3C)CCOC(C)(C)C2)cc1 (stereo not drawn)
    -2.8, 6
Cc1ccc(S(=O)(=O)N(CCC(=O)O)c2ccccc2)cc1
    ·, 1
CCN(CC)CCOc1ccccc1N
    0.6, 4
CN(C)C(CNC(=O)Nc1ccccc1)c1cccs1 (stereo not drawn)
    ·, 4
CCCCN(C(=O)c1cnc2n(c1=O)CCS2)c1ccccc1
    ·, 8
Cc1cc(C(=O)Nc2cccnc2)nn1C(C)(C)C
    ·, -18
COc1cccc(N=C=S)c1
    ·, -16
O=c1cc(CSc2ccc(Cl)cc2)[nH]c(=O)[nH]1
    -3.3, ·
CN(C)Cc1ccc(C(=O)Oc2ccc(C(C)(C)C)cc2)cc1
    -1.4, -10
COCCNC(=O)Cc1ccccc1OC
    3.4, 2
CN(C)c1ccc(-c2n[nH]c(=O)c3ccccc23)cc1[N+](=O)[O-]
    -0.6, ·
Cc1cc(F)c(F)c(C(=O)n2ccnc2)c1Cl
    1.9, -2

A few values from above.
MgrA-DNA mod, C=CCOc1cccc(C(=O)Nc2ncn[nH]2)c1 reads 1.4
S aureus helic, CC(C)C(=O)N=C1SC2CS(=O)(=O)CC2N1CCc1ccccc1 (stereo not drawn) reads 1
S aureus helic, Cc1ccc(C2(CC(=O)Nc3ccccc3C)CCOC(C)(C)C2)cc1 (stereo not drawn) reads 6
MgrA-DNA mod, Fc1ccc(/C=N/c2nnc3nc[nH]n23)cc1 reads -1.6

6 of the compounds above, in markdown:
| canonical_smiles | MgrA-DNA mod | S aureus helic |
| --- | --- | --- |
| Cc1ccc(S(=O)(=O)N(CCC(=O)O)c2ccccc2)cc1 | · | 1 |
| CCN(CC)CCOc1ccccc1N | 0.6 | 4 |
| CN(C)C(CNC(=O)Nc1ccccc1)c1cccs1 (stereo not drawn) | · | 4 |
| CCCCN(C(=O)c1cnc2n(c1=O)CCS2)c1ccccc1 | · | 8 |
| Cc1cc(C(=O)Nc2cccnc2)nn1C(C)(C)C | · | -18 |
| COc1cccc(N=C=S)c1 | · | -16 |

Following part
Each structure is followed by: MgrA-DNA mod, S aureus helic
CCOC(=O)c1cc(-c2nnc(-c3cccc(C)c3)o2)c(C)nc1C
    0.3, 9
NC(=O)c1cccc2c1C(=O)N(C1CCCCC1)C2
    ·, 24
CCCCn1c2ccccc2c2nnc(SC(C)C(=O)OC)nc21 (stereo not drawn)
    -0.2, 20
CC1=NN(C(N)=S)C(=O)C1
    0.4, -7
COc1ccc(Cl)c(NCCC(=O)O)c1
    1.0, 5
O=C(NCc1ccccc1Cl)C1=CSCCO1
    1.9, 9
COc1ccc(CCN=C(C)C2=C(O)COC2=O)cc1OC
    ·, 11
N#CC1=C2SCN(C3CCCCC3)CN2C(=O)CC1c1ccccc1 (stereo not drawn)
    ·, -1
CNS(=O)(=O)c1cccc(C(=O)NCCCn2nc(C)cc2C)c1
    ·, 6
CCCN(C(=O)Cc1coc2cc(OC)ccc12)C1CCS(=O)(=O)C1 (stereo not drawn)
    ·, 8
Cc1cccc(NC(=O)C(CC(C)C)NS(=O)(=O)c2ccc3c(c2)oc(=O)n3C)c1 (stereo not drawn)
    -2.3, 2
CCSC1=NC2(CCN(C(=O)Nc3ccccc3)CC2)N=C1c1ccccc1
    ·, 5
CN(C)/C=C1/C(=O)c2sccc2N(C)S1(=O)=O
    6.3, ·
CCc1noc(C)c1C(=O)OCC(=O)c1ccc2ccccc2c1
    ·, 12
O=C(COC(=O)c1ccccc1O)NC12CC3CC(CC(C3)C1)C2
    -0.3, -10

Whole records, looked up by structure. Screens in order: MgrA-DNA mod | S aureus helic
N#CC1=C2SCN(C3CCCCC3)CN2C(=O)CC1c1ccccc1 (stereo not drawn) is listed with · | -1
CCSC1=NC2(CCN(C(=O)Nc3ccccc3)CC2)N=C1c1ccccc1 is listed with · | 5

Additional entries.
Each structure is followed by: MgrA-DNA mod, S aureus helic
Cc1ccccc1C(=O)Nc1ccccc1
    -1.4, -11
NNC(=O)c1sccc1N
    1.7, ·
CS(=O)(=O)N1CCCC(C(F)(F)F)C1 (stereo not drawn)
    ·, -4
CC12CN3CC(C)(CN(C1)C3c1ccccc1)C2O (stereo not drawn)
    ·, 49
CCOC(=O)Cc1ccc(NC(=O)C(F)(F)C(F)F)cc1
    0.0, 9
c1cc(-c2nnn(C3CCCCC3)c2NC2CCCCC2)[nH]n1
    1.6, 3
CC(CC(=O)O)n1nnc2ccccc21 (stereo not drawn)
    -5.1, 9
CC(C)c1ccc2nc(SCC(=O)N3CCCC3)c(C#N)cc2c1
    0.4, 5
COc1ccc(CNC(=O)C2=C(C(=O)O)CCCC2)cc1
    -1.2, -8
CC(C#N)(NC(=O)CN1CCN(c2cccc(C(F)(F)F)c2)CC1)C1CC1 (stereo not drawn)
    ·, -1
CC(C)c1cc(N2CCCC2)n2c(nc3ccccc32)c1C#N
    ·, 5
CCOC(=O)C1=C(C)N=c2s/c(=C\c3ccc(O)c(OCC)c3)c(=O)n2C1c1ccc(N(C)C)cc1 (stereo not drawn)
    3.2, ·
Cc1ccc(OC(=O)c2cc(S(=O)(=O)N3CCCC3)ccc2C)cc1C
    0.8, 7
O=C(CN1CCCC1)N1c2ccccc2C=Cc2ccccc21
    ·, 16
CCOC(=O)CN1N=C(c2ccc(Cl)cc2)CCC1=O
    0.6, 10
COc1ccc(-n2cnc3cc(C(=O)N4CCOCC4)ccc32)cc1
    0.2, -11
C/C(=N\Nc1cccc2cccnc12)C(C)(C)C
    ·, 0
CN(C)CCNc1cc(N2CCN(C(=O)c3ccco3)CC2)c2noc3c2c1C(=O)c1ccccc1-3
    ·, -120
CCOCNC(=O)Nc1ccc(Cl)cc1
    ·, 8
C/C=C/C/C=C/CCC(=O)[C@H]1O[C@H]1C(N)=O
    2.4, ·
COC(=O)c1csc(S(=O)(=O)N=S(C)(=O)c2cccs2)c1OC (stereo not drawn)
    -1.3, ·
COc1ccc(-c2nonc2NC(=O)c2ccccc2)cc1
    ·, -24
c1ccc(-c2noc(CC3CCCCC3)n2)nc1
    ·, 2
COc1cc(NC(=O)C2CCCN2C(=O)C2CCC(C)CC2)cc(OC)c1OC (stereo not drawn)
    1.8, 5
CCOCC(=O)OCc1ccc(Cl)cc1
    0.3, 7
Clc1cc(Cl)cc(OCc2nc(-c3cc(-c4ccccc4)no3)cs2)c1
    -0.1, ·
COc1ccc(CN(C)C(=O)CN2C(=O)C3CC=CCC3C2=O)cc1OC (stereo not drawn)
    ·, -9
CCOC(=O)C(C#N)c1nc2ccccc2nc1N1CCN(C(=O)c2ccco2)CC1 (stereo not drawn)
    ·, -9
CCOC(=O)/C=C(\C)N1CCOCC1
    ·, 23
CC1(C)C(=O)OC(c2c(F)c(F)c(F)c(F)c2F)C2(CCCCC2)C1=O (stereo not drawn)
    0.0, 4
OC(COc1ccc(F)cc1)(c1ccccc1)c1ccccc1
    -2.5, ·
CCCCn1c(=O)c2oc3ccccc3c2n(Cc2cc(C)ccc2C)c1=O
    ·, 14
CNCC(O)C(O)C(O)C(O)CO (stereo not drawn)
    3.5, ·
c1csc(-c2ccnc(SCc3ccc4nonc4c3)n2)c1
    0.0, ·
Cn1c(=NC(=O)CCS(=O)(=O)c2ccc(F)cc2)sc2cc(F)ccc21
    ·, -8
CC1CCN(C(=O)COC(=O)COc2ccccc2-c2ccccc2)CC1
    1.5, -1
COc1ccc(-c2nn(CN3CCOCC3)c(=S)n2-c2ccccc2)cc1OC
    -1.1, 4
CC(C)(C)OC(=O)CN1c2cccc3cccc(c23)S1(=O)=O
    ·, 16
COC(=O)c1ccc(CSc2nccn2C)cc1
    -2.2, 1
CN(C)c1cc(C(F)(F)F)nc2c(Cl)c(C(C)(C)C)nn12
    ·, -17
O=C(NC12CC3CC(CC(C3)C1)C2)C(F)(F)F
    ·, 4
Cc1cc(C)n(-c2ncccc2C(F)(F)F)n1
    -2.6, ·
CCOC(=O)c1ccccc1NC(=O)C=C(C)C
    2.8, 3
Cc1c(-c2ccccc2)cc2ccccn12
    -1.7, -18
CCOC(=O)c1[nH]c2sc(C)c(C)c2c1N
    ·, 29
O=S(=O)(Cc1nc(-c2ccc(Cl)cc2)cs1)c1ccc(Cl)cc1
    1.5, ·
COC(=O)c1ccc(CNCC2COc3ccccc3O2)o1 (stereo not drawn)
    ·, 2
Nc1ncnc(Nc2ccc(Cl)c(Cl)c2)n1
    -0.7, ·
CCOC(=O)c1cc(=O)cc(C(=O)OCC)o1
    ·, 3
Cc1cccc(NC(=O)c2cnc3sccn3c2=O)c1
    1.4, 19
Cc1nn(CCCC(=O)NC2CCCc3ccccc32)c(=O)c2nccn12 (stereo not drawn)
    ·, -12
COc1ccc(N2C(=O)/C(=C\C=C\c3ccccc3)SC2=S)cc1
    -1.4, 3
O=C(CSc1nc2ccccc2n1CC(=O)N1CCCC1)N1CCCCC1
    -1.1, 6
O=C1Nc2ccccc2S/C1=C/c1ccc(C(=O)N2CCOCC2)cc1
    ·, 19
O=C(CN1C(=O)c2cccnc2Oc2ccc(Cl)cc21)Nc1ccc(F)cc1
    ·, -29
COc1ccc2nc3oc(C(=O)NC4CCN(Cc5ccccc5)CC4)cc3cc2c1
    ·, -18
C=CCN(CC=C)C(=O)CSC1=C(C#N)C(C)(C)C(C#N)C(=O)N1 (stereo not drawn)
    ·, -3
Cc1cc(C)nc(-n2nc(C)cc2NC(=O)CNCc2ccccc2)n1
    ·, 6
CCOc1ccc2c(c1)C(C)=CC(C)(C)N2C(=O)C(C)N1C(=O)c2ccccc2C1=O (stereo not drawn)
    ·, -16
O=C(CN1CCN(Cc2ccc(Cl)cc2)C1=O)NCC1COc2ccccc2O1 (stereo not drawn)
    0.3, 1

(more compounds)
Each structure is followed by: MgrA-DNA mod, S aureus helic
CCC1(C)N([O-])C(C)=C(c2ccccc2)[N+]1=O (stereo not drawn)
    1.8, 7
COC(=O)c1cc(S(=O)(=O)N(CC(C)C)CC(C)C)c[nH]1
    ·, -18
O=C(c1ccccc1)c1cc(Br)ccc1O
    ·, -3
Cc1ccc(-c2nc(NC(=O)C(C(C)C)N3C(=O)c4ccccc4C3=O)sc2C)cc1 (stereo not drawn)
    3.6, -9
CC1(C)Cc2ccccc2C(N)=C1C#N
    0.0, ·
CCn1c(C)nc2cc(C(=O)N3N=CCC3(O)C(F)(F)F)ccc21 (stereo not drawn)
    ·, -3
Cc1cc(C)c2c(-n3cccc3)nn(CC#N)c2n1
    -2.4, ·
CCC(=O)c1cc(OC)c(OC)cc1OC
    -0.4, ·
Cc1ccccc1C1C2=C(CC(C)(C)CC2=O)OC2=C1C(=O)CC(C)(C)C2
    -0.9, ·
O=C(CSc1nnc(-c2ccncc2)n1-c1ccccc1)c1ccccc1
    -0.6, -9
CSc1ncccc1C(=O)N(Cc1ccccc1)C1CCS(=O)(=O)C1 (stereo not drawn)
    ·, -2
CO[C@H]1O[C@H](CO)C(O[C@@H]2OC(C(=O)O)[C@@H](O[C@H]3O[C@H](COS(=O)(=O)O)C(O[C@@H]4OC(C(=O)O)[C@@H](O[C@H]5O[C@H](CO)C(O[C@@H]6OC(C(=O)O)[C@@H](O[C@H]7O[C@H](COS(=O)(=O)O)C(O[C@@H]8OC(C(=O)O)=C[C@H](O)C8OS(=O)(=O)O)[C@H](O)[C@H]7NC(C)=O)[C@H](O)[C@H]6O)[C@H](O)[C@H]5NC(C)=O)[C@H](O)[C@H]4O)[C@H](O)[C@H]3NC(C)=O)[C@H](O)[C@H]2O)[C@H](O)[C@H]1NC(C)=O (stereo partly drawn)
    5.1, ·
COc1cccc(CN2CCN(C(=O)CC(C)C)CC2)c1
    ·, 11
CCOC(=O)c1c(C)n(CC)c2ccc(OC)cc12
    0.3, 4
O=S(=O)(/N=C1\C=C2N(CCO)CCOC2(O)c2ccccc21)c1ccc(F)cc1 (stereo not drawn)
    ·, -33

Two compounds picked at random from the list so far:
Each structure is followed by: MgrA-DNA mod, S aureus helic
CCn1c(C)nc2cc(C(=O)N3N=CCC3(O)C(F)(F)F)ccc21 (stereo not drawn)
    ·, -3
O=S(=O)(/N=C1\C=C2N(CCO)CCOC2(O)c2ccccc21)c1ccc(F)cc1 (stereo not drawn)
    ·, -33
